Bioassay records: PubChem, Broad Institute
Ecoli rRNA inh: selective bacterial rRNA inhibition in E. coli. GFP signal change (wild-type ribosome), % (concentration not given with the values). AID 720706. 350,000 compounds, 1.6% hits. E. coli WT GFP vs humanized-ribosome RFP mutants, fluorescence, 24 h; hits give low values; DMSO median 0, no signal -100;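 active = significant combined selectivity score with lowered wild-type GFP, culture density cut under 30%, mutant RFP and density less affected; inactive = any of these conditions unmet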; also: one replicate is shown; some compounds called inactive have numbers as strong as hits
Ecoli rRNA inh OD600: further read-out of Ecoli rRNA inh, marked with its call; OD600 change, %; measured here: OD600 growth;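 optical density of the mix in the first replicate; 0 = DMSO median and -100 = no signal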
Ecoli rRNA inh RFP: recorded beside Ecoli rRNA inh, whose call it bears; RFP signal change, %; measured here: RFP humanized mutant strains;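 first replicate; 0 = DMSO median and -100 = no signal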
Numbers without * were called inactive; & = joins results of further samples. These rows are one share of the data, so the mix of outcomes need not match the whole.

A first look:
Ecoli rRNA inh	Ecoli rRNA inh OD600	Ecoli rRNA inh RFP	Molecule
2	15	-0.8	COc1ccc(-c2cscc2N)cc1
1	-17	5.3	O=C(C[C@H]1CC[C@H]2[C@@H](COC[C@@H](O)CN2Cc2ccc(Oc3ccccc3)cc2)O1)N1CCOCC1
-5	-3	0.9	C[C@@H]1CN([C@H](C)CO)C(=O)c2cc(NS(=O)(=O)c3ccccc3)ccc2O[C@@H](C)CCCCO[C@@H]1CN(C)C(=O)Cc1ccccc1

This part in full, from the first entry:
Ecoli rRNA inh	Ecoli rRNA inh OD600	Ecoli rRNA inh RFP	Molecule
2	15	-0.8	COc1ccc(-c2cscc2N)cc1
1	-17	5.3	O=C(C[C@H]1CC[C@H]2[C@@H](COC[C@@H](O)CN2Cc2ccc(Oc3ccccc3)cc2)O1)N1CCOCC1
-5	-3	0.9	C[C@@H]1CN([C@H](C)CO)C(=O)c2cc(NS(=O)(=O)c3ccccc3)ccc2O[C@@H](C)CCCCO[C@@H]1CN(C)C(=O)Cc1ccccc1
-3	-4	2.1	COc1ccc(S(=O)(=O)Nc2ccc3c(c2)[C@H]2C[C@@H](CC(=O)NCC4CC4)O[C@@H](CO)[C@H]2O3)cc1
-4	-6	3.0	COc1ccc2c3c(n(C)c2c1)[C@H](CO)N(CC1CC1)CC31CN(C(=O)c2cccc(F)c2)C1
1	1	0.9	CCNC(=O)Nc1ccc2c(c1)C(=O)N(C)[C@H]1CC[C@@H](CC(=O)Nc3ccccc3)O[C@@H]1CO2
3	1	-2.5	COCC(=O)N1[C@H](CO)[C@@H](c2ccccc2)[C@@H]1CN(C)C(=O)c1ccncc1
-6	-16	-1.0	COc1ccc(C(C)(O)c2nc(-c3ccc(OC)c(OC)c3)cs2)cc1 (stereo unspecified)
6	1	-0.4	CO[C@@H]1CN(C)C(=O)c2ccc(NC(=O)Nc3c(C)noc3C)cc2OC[C@H](C)NC[C@H]1C
-16	-43	-16	Cc1c(C(=O)NCc2ccc(Cl)c(Cl)c2)sc(=O)n1Cc1cccc(F)c1
10	20	0.2	CO[C@H](CN(C)C(=O)C1CCOCC1)[C@H](C)CN([C@@H](C)CO)S(=O)(=O)c1ccccc1
2	14	7.0	Cc1cccc(CN2CCN(C3CN(C4CCCC4)S(=O)(=O)C3)CC2)c1 (stereo unspecified)
-11	-22	9.0	Cc1ccc(S(=O)(=O)NN=C2CCCc3ccccc32)cc1
2	2	1.6	CCN1[C@@H]2Cn3c(ccc(-c4cccc(F)c4)c3=O)[C@H]1[C@@H](C(=O)NCC1CC1)[C@@H]2CO
2	3	-1.6	CO[C@@H]1CN(C)C(=O)c2cc(NS(C)(=O)=O)ccc2OC[C@@H](C)N(C(=O)C2CCOCC2)C[C@@H]1C
-3	-3	1.0	O=C(Cc1ccccn1)N[C@@H]1CC[C@H](CCn2cc(-c3ccccc3)nn2)O[C@H]1CO
-2	-6	0.0	C[C@H](CO)N1C[C@H](C)[C@@H](CN(C)C(=O)Nc2ccc3c(c2)OCO3)Oc2ncc(-c3cccnc3)cc2C1=O
-3	-6	1.4	C[C@H](CO)N1C[C@H](C)[C@H](CN(C)Cc2ccccc2)Oc2cc(C#CC(C)(C)O)ccc2S1(=O)=O
-12	-45	0.8	CCc1nc2c(OCc3ccc(F)c(F)c3)cccn2c1N(C)C(=O)C1CC1
2	0	-1.8	CO[C@H]1CN(C)C(=O)c2ccc(NS(=O)(=O)c3ccccc3C)cc2OC[C@@H](C)NC[C@@H]1C

(more compounds)
Ecoli rRNA inh	Ecoli rRNA inh OD600	Ecoli rRNA inh RFP	Molecule
13	19	0.0	CCN(Cc1ccccc1)N=Nc1ccccc1
-61	-73	-24	CC(=O)N[C@@H]1CC[C@H](CCNC(=O)Nc2ccc(C(F)(F)F)cc2)O[C@H]1CO
1	6	0.4	C[C@H](CO)N1C[C@H](C)[C@H](CN(C)C(=O)Nc2cccc3ccccc23)Oc2ccc(NC(=O)Cn3cnnn3)cc2CC1=O
-1	-10	0.1	C[C@H]1CCCCO[C@@H](CN(C)Cc2ccc(C(F)(F)F)cc2)[C@@H](C)CN([C@@H](C)CO)C(=O)c2cc(NS(=O)(=O)c3cn(C)cn3)ccc2O1
0	2	1.3	C[C@@H]1CN([C@H](C)CO)C(=O)c2ccccc2-c2ccccc2CO[C@@H]1CN(C)C(=O)CCC(F)(F)F
5	12	0.4	CN(C)CC(=O)Nc1ccc2c(c1)[C@@H]1C[C@H](CC(=O)NCC3CC3)O[C@@H](CO)[C@@H]1O2
-5	-3	0.1	C[C@H](CO)N1C[C@H](C)[C@H](CN(C)C(=O)C2CCCCC2)OCCCC[C@H](C)Oc2ccc(N(C)C)cc2C1=O
2	3	-2.9	C[C@@H]1CN([C@H](C)CO)C(=O)Cc2cc(NC(=O)Nc3ccc(C(F)(F)F)cc3)ccc2O[C@H]1CN(C)S(=O)(=O)c1ccc(F)cc1
6	5	-3.1	C[C@@H]1CN([C@@H](C)CO)C(=O)c2cc(C#CC3CC3)cnc2O[C@H]1CN(C)C(=O)CC1CC1
-2	3	0.6	C[C@H](CO)N1C[C@H](C)[C@H](CN(C)C(=O)c2ccncc2)Oc2cc(C3=CCCC3)ccc2S1(=O)=O
-5	5	0.7	C[C@H](CO)N1C[C@H](C)[C@H](CN(C)Cc2ccc(C(=O)O)cc2)OCCCC[C@H](C)Oc2ccc(NC(=O)Nc3cccc4ccccc34)cc2C1=O
2	15	-0.8	COc1ccc2c3c([nH]c2c1)[C@H](CO)NCC31CN(C(=O)Nc2ccc3c(c2)OCO3)C1
5	8	-6.6	CN(C)C(=O)C[C@@H]1CC[C@@H]2[C@H](COC[C@H](O)CN2CC2CCCC2)O1
2	-1	-0.6	CN(C)CC(=O)N[C@H]1CC[C@@H](CCNC(=O)C2CC2)O[C@H]1CO
6	3	-1.2	CO[C@H]1CN(C)C(=O)c2ccc(NC(=O)C3CCOCC3)cc2OC[C@@H](C)N(C(C)=O)C[C@H]1C
14	9	3.3	COc1cccc(CN(C)C(=O)CC[C@H]2O[C@@H](n3cnc4c(NC(=O)c5ccccc5)ncnc43)[C@H](O)[C@@H]2O)c1
-2	-2	-0.9	O=C(C[C@@H]1C[C@@H]2c3cc(NS(=O)(=O)c4ccc(F)cc4)ccc3O[C@@H]2[C@H](CO)O1)NC1CCCC1
1	6	5.0	COc1cccc(-c2nc3nc(C)cc(C)n3c2Nc2ccc3c(c2)OCCO3)c1
8&-3	7&3	-0.5&-1.7	C[C@@H]1CCCCO[C@@H](CN(C)C(=O)CCC(F)(F)F)[C@@H](C)CN([C@H](C)CO)C(=O)c2cc(N(C)C)ccc2O1
-2	-5	1.8	C[C@@H]1CN([C@@H](C)CO)C(=O)c2cc(NC(=O)c3ccncc3)ccc2O[C@@H](C)CCCCO[C@@H]1CN(C)S(=O)(=O)c1ccccc1

Six of the entries above in order of their number in Ecoli rRNA inh, largest number first.
Ecoli rRNA inh	Ecoli rRNA inh OD600	Ecoli rRNA inh RFP	Molecule
13	19	0.0	CCN(Cc1ccccc1)N=Nc1ccccc1
6	5	-3.1	C[C@@H]1CN([C@@H](C)CO)C(=O)c2cc(C#CC3CC3)cnc2O[C@H]1CN(C)C(=O)CC1CC1
2	15	-0.8	COc1ccc2c3c([nH]c2c1)[C@H](CO)NCC31CN(C(=O)Nc2ccc3c(c2)OCO3)C1
1	6	0.4	C[C@H](CO)N1C[C@H](C)[C@H](CN(C)C(=O)Nc2cccc3ccccc23)Oc2ccc(NC(=O)Cn3cnnn3)cc2CC1=O
-2	-5	1.8	C[C@@H]1CN([C@@H](C)CO)C(=O)c2cc(NC(=O)c3ccncc3)ccc2O[C@@H](C)CCCCO[C@@H]1CN(C)S(=O)(=O)c1ccccc1
-5	5	0.7	C[C@H](CO)N1C[C@H](C)[C@H](CN(C)Cc2ccc(C(=O)O)cc2)OCCCC[C@H](C)Oc2ccc(NC(=O)Nc3cccc4ccccc34)cc2C1=O

Next section:
Ecoli rRNA inh	Ecoli rRNA inh OD600	Ecoli rRNA inh RFP	Molecule
0	3	-0.8	COc1ccc(CN(C)C[C@@H]2Oc3c(NS(=O)(=O)c4ccccc4)cccc3C(=O)N([C@@H](C)CO)C[C@@H]2C)cc1
3	11	-2.5	CO[C@H]1CN(C)C(=O)c2cc(NC(=O)C3CCC3)ccc2OC[C@H](C)N(Cc2cccnc2)C[C@H]1C
-2	-3	-1.5	C[C@@H]1CN([C@@H](C)CO)C(=O)Cc2cc(NC(=O)Cn3cnnn3)ccc2O[C@H]1CN(C)Cc1ccc(C(=O)O)cc1
-3	-32	-4.5	CCCNC(=O)N(C)C[C@@H]1Oc2cc(C#Cc3cccc(F)c3)ccc2S(=O)(=O)N([C@@H](C)CO)C[C@H]1C
3	8	-3.0	C[C@H]1CN([C@@H](C)CO)C(=O)Cc2cc(NC(=O)NC3CCCCC3)ccc2O[C@H]1CN(C)CC1CC1
-2	-3	3.4	COc1ccc(NC(=O)Nc2ccc3c(c2)CC(=O)N([C@@H](C)CO)C[C@H](C)[C@H](CN(C)S(=O)(=O)c2ccc(Cl)cc2)O3)cc1
0	6	-1.6	COc1ccccc1-c1cnc2c(c1)C(=O)N([C@@H](C)CO)C[C@H](C)[C@@H](CN(C)C(=O)c1cccnc1)O2
5	13	-0.4	COc1ccccc1CN1CCNC(=O)C1CC(=O)NCCCN1CCOCC1 (stereo unspecified)
2	3	-1.4	O=C(C[C@H]1C[C@@H]2c3cc(NC(=O)CC4CC4)ccc3O[C@@H]2[C@@H](CO)O1)NCc1cccnc1
10	0	36	CC1(C)OC(=O)C2=C(CC(CCc3ccccc3)OC2CCc2ccccc2)O1 (stereo unspecified)
12	17	-0.9	Cc1noc(C)c1C(=O)N1CCC1(C)C(=O)NS(=O)(=O)c1cccc(OC(F)F)c1 (stereo unspecified)
-2	7	-0.2	CN(C)C(=O)c1ccc(-c2ccc([C@H]3[C@@H](C#N)N(S(C)(=O)=O)[C@H]3CO)cc2)cc1
4	-3	-0.9	C[C@H](CO)N1C[C@H](C)[C@H](CN(C)CC2CCCCC2)Oc2ccc(NC(=O)CCC(F)(F)F)cc2C1=O
-1	-4	2.9	Cc1noc(C)c1S(=O)(=O)N(C)C[C@H]1OCCCC[C@@H](C)Oc2ccc(NS(C)(=O)=O)cc2C(=O)N([C@@H](C)CO)C[C@H]1C
-2	4	-3.4	CCCNC(=O)Nc1ccc2c(c1)C(=O)N(C)C[C@@H](OC)[C@@H](C)CN(C)[C@@H](C)CO2
3	1	1.7	C[C@@H]1CCCCO[C@@H](CN(C)C)[C@@H](C)CN([C@@H](C)CO)C(=O)c2cc(NS(=O)(=O)c3ccc(Cl)cc3)ccc2O1
2	2	-2.5	CO[C@@H]1CN(C)C(=O)c2ccc(NC(C)=O)cc2OC[C@@H](C)N(C(=O)c2cnccn2)C[C@@H]1C
16	11	3.2	Cc1ccccc1-c1ccc2c(c1)[C@@H]1C[C@H]3[C@@H](CN1CC2)[C@H](C)OC(C1CCCCC1)N3C (stereo partly specified)
-1	-4	-2.7	O=C(C[C@H]1CC[C@H]2[C@@H](COC[C@H](O)CN2C(=O)c2ccncc2)O1)NCc1ccc(-c2ccccc2)cc1
-9	-10	3.2	CO[C@@H]1CN(C)C(=O)c2ccc(NC(=O)c3cc(C)on3)cc2OC[C@@H](C)N(S(=O)(=O)c2cccc(F)c2)C[C@H]1C

New compounds follow:
Ecoli rRNA inh	Ecoli rRNA inh OD600	Ecoli rRNA inh RFP	Molecule
1	4	-0.4	CCC(=O)N[C@@H]1C=C[C@H](CC(=O)OC)O[C@@H]1CO
-2	5	-2.3	C[C@H]1CCCCO[C@@H](CN(C)C(=O)Nc2ccc3c(c2)OCO3)[C@@H](C)CN([C@@H](C)CO)C(=O)c2cc(NC(=O)c3ccccc3)ccc2O1
2	8	-1.7	CCCCNC(=O)C1(C)CCN1C(=O)Cc1ccc(OC)cc1 (stereo unspecified)
-1	-14	4.1	O=C(C1CC1)N1CC[C@@H]2[C@H]1c1cc(-c3ccc(F)cc3)ccc1N[C@@H]2CO
2	2	-1.7	C[C@H]1CCCCO[C@H](CN(C)C)[C@@H](C)CN([C@@H](C)CO)C(=O)c2cc(NS(=O)(=O)c3cn(C)cn3)ccc2O1
0	0	-0.3	C[C@H]1CN([C@@H](C)CO)C(=O)CCCn2cc(nn2)CO[C@H]1CN(C)C(=O)NC1CCCCC1
1	0	1.1	CO[C@H]1CN(C)C(=O)c2cc(NC(=O)Nc3cccc(F)c3)ccc2OC[C@@H](C)N(C(=O)Nc2c(C)noc2C)C[C@@H]1C
1	10	-0.9	Cc1noc(C)c1S(=O)(=O)Nc1cccc2c1O[C@H](CN(C)C(=O)Nc1ccc3c(c1)OCO3)[C@H](C)CN([C@H](C)CO)C2=O
4	1	-1.8	CCC(=O)Nc1ccc2c(c1)C(=O)N(C)[C@H]1CC[C@@H](CC(=O)NCCc3ccccc3)O[C@@H]1CO2
2	5	-0.7	O=C(NC1Cc2ccccc2C1)[C@H]1[C@H](CO)[C@H]2Cn3c(cccc3=O)[C@@H]1N2C(=O)CC1CC1
2	-2	-3.4	CCC(=O)N1[C@@H]2CN(C(=O)c3cccc(OC)c3)c3ccccc3[C@@H]2[C@@H]1CO
-1	3	-4.1	Cc1noc(C)c1NC(=O)Nc1ccc2c(c1)C(=O)N([C@H](C)CO)C[C@H](C)[C@@H](CN(C)C(=O)Cc1ccccc1)OCCCC[C@@H](C)O2
1	4	-2.7	CC(=O)N(C)C[C@@H]1Oc2cc(-c3ccncc3)ccc2S(=O)(=O)N([C@@H](C)CO)C[C@H]1C
0	-2	0.7	C[C@@H]1CN([C@H](C)CO)C(=O)c2ccccc2-c2ccccc2CO[C@H]1CN(C)C(=O)[C@H](Cc1ccccc1)N(C)C
3	4	-0.1	O=C(C[C@@H]1C=C[C@@H](NC(=O)CCN2CCCCC2)[C@H](CO)O1)Nc1nccs1
-1	2	-1.3	COc1ccc(NC(=O)Nc2ccc3c(c2)[C@@H]2C[C@H](CC(=O)N4CCOCC4)O[C@H](CO)[C@@H]2O3)cc1
4	10	0.3	O=C(C[C@H]1C[C@@H]2c3cc(NC(=O)NC4CCCCC4)ccc3O[C@@H]2[C@H](CO)O1)NCc1ccncc1
